Compound activity: PubChem BioAssay, National Center for Advancing Translational Sciences (NCATS)
ClpP mod: qHTS Assay for Activators of ClpP; ATP-dependent Clp protease proteolytic subunit (Bacillus subtilis (strain 168)), P80244; purified B. subtilis ClpP, FRET peptide cleavage, 20 min; Potency, µM (highest dose often 57.5 µM), inactives show top-dose activity change, negative = active; actives 1.9% (n = 340,000); AID 651965, 2013; active = well fitted falling curve with a large enough effect; inconclusive = small, poorly fitted or top-dose-only effect; inactive = no such curve, though single readings can be large or run the other way; also: potency is read from the fitted curve at half-maximal effect; the source files actives as falling curves though it sought activators and does not explain the sign; nearly all actives have a fitted effect of over 65% in size; many hits overshoot -100%
Target sequence (P80244 whole entry, looked up): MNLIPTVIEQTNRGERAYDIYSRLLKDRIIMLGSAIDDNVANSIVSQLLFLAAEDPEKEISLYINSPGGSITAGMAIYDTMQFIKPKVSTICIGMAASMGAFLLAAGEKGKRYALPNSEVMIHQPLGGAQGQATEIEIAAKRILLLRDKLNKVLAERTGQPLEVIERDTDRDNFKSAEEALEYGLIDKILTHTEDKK
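ClpP 10 microg/mL final, pH 8 Tris/KCl buffer with BSA, glycerol, Tween-20; compound pinned in; FRET-FV substrate; RT 20 min; Ex320/Em430; ΔFRET vs ADEP 5.8 microM, DMSO, no enzyme.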
Menin MLL FP FL: qHTS Assay for Inhibitors Targeting the Menin-MLL Interaction in MLL Related Leukemias: Competition With Fluorescein Labeled MLL-derived Peptide; Fluorescence polarization, fluorescein-MLL peptide displacement from menin; FP activity change, % at 61.4 µM; 290,000 tested, under 10 active; AID 1766, 2009; inconclusive = falling polarisation curve, or a change in total fluorescence; inactive = total fluorescence flat and polarisation flat or rising; no compound was filed as active; the % refers to the polarisation; negative = inhibition;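 also: % of control where 0% means no effect; inhibitors lower the polarisation; unlabelled MLL peptide was the positive control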
gsp ag: qHTS for Agonist of gsp, the Etiologic Mutation Responsible for Fibrous Dysplasia/McCune-Albright Syndrome: qHTS. AID 624287, 2012. actives 0.13% (n = 340,000). Potency, µM (doses to about 76.9 µM), for inactives: at the top dose activation (cAMP increase), most hits filed as activators. gsp mutant cells, cAMP HTRF, 30 min; control for the full effect not named in the record; active = well fitted activation curve with a large enough effect; inconclusive = small, poorly fitted or top-dose-only effect, or another doubt; inactive = no such curve, though single readings can be large or run the other way; cell line not stated here;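 also: phosphodiesterase inhibitor Ro 20-1724 added with compounds to block cAMP breakdown; potency is read from the fitted curve at half-maximal effect; nearly all actives have a fitted effect of over 60% in size; about a fifth of the inactives were tested at one dose only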
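Cells stably selected in G418 were plated at 2000/well, grown 16-24 hr, then given compounds in DMSO with the PDE inhibitor […] (300 uM solution added) for 30 min at 37C; cAMP was read by HTRF.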
CtBP-E1A blk: qHTS Assay for Inhibitors of the CtBP/E1A Interaction | actives 0.49% (n = 340,000) | AlphaScreen GST-E1A/His-CtBP binding, 1536-well; active compounds read low; control for the full effect not named in the record | CtBP / adenovirus E1A interaction (AlphaScreen) | activity change, % (test concentration not listed); in the data active means activity change below about -65%; inconclusive means about -30% to -65%; inactive means above about -30%; also: % is scaled to controls: 0 for no effect and ±100 for the full control effect
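GST-E1A and His-tagged CtBP (125 nM each as 5X stock) were preincubated with pin-transferred compound for 2 h at 37 °C in the dark, then glutathione donor and nickel acceptor beads were added for 1 h before AlphaScreen reading.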
TRPV1 PAM: HTS Assay for Compounds that Act as Potentiators of the Vanilloid Receptor 1; AID 540277, 2011; actives 0.02% (n = 320,000); potentiation, % at 8.33 µM; TRPV1-expressing cells, Fluo-8 calcium influx, capsaicin EC20 potentiation; host cell line not named in the record; control for the full effect not named in the record; active means potentiation above 80%; inconclusive means 30% to 80%; inactive means below 30%; also: 0% is about no effect
Target sequence (Q8NER1 whole entry, looked up): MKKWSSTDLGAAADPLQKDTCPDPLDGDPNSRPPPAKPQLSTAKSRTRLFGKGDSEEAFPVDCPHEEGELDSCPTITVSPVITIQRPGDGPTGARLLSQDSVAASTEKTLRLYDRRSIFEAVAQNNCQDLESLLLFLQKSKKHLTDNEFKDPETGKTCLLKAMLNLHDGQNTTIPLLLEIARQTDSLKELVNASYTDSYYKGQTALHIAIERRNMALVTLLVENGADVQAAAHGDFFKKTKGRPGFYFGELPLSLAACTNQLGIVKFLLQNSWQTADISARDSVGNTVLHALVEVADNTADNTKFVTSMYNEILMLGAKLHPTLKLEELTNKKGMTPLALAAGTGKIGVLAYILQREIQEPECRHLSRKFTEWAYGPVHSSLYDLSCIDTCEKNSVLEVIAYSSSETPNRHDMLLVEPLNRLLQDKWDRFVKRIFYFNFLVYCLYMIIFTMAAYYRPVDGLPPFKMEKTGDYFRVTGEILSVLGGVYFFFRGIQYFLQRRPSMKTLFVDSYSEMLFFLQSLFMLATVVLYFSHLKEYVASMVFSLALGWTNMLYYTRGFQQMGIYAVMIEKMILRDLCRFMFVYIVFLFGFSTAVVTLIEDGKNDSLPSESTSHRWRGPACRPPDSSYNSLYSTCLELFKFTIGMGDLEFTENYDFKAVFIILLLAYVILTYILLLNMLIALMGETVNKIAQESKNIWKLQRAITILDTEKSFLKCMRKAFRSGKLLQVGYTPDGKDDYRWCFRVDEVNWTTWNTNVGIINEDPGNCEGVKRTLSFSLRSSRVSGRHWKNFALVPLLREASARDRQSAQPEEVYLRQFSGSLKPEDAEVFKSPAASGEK
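TRPV1-expressing cells were cultured overnight at 35.5C and loaded with Fluo-8 calcium dye for 40 to 90 min at room temperature. After a 10 s baseline, compound was added and calcium influx was read kinetically for 3 min (ex 480/em 520 nm).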
Sfp PPTase inh: qHTS Assay for Inhibitors of Bacillus subtilis Sfp phosphopantetheinyl transferase (PPTase) | actives 3.5% (n = 310,000) | Potency, µM, for the others: max response, negative = inhibition, usual class: inhibitors | Biochemical Sfp PPTase activity, qHTS | 4'-phosphopantetheinyl transferase ffp (Bacillus subtilis), Q9F4F7 | AID 1490, 2009; active = well fitted inhibition curve with a large enough effect; inconclusive = small, poorly fitted or top-dose-only effect, or another doubt; inactive = no such curve, though single readings can be large or run the other way;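 also: the enzyme is Sfp with the accession as filed and its product quenches rhodamine fluorescence; potency is read from the fitted curve at half-maximal effect; 0% = enzyme reaction without inhibitor and -100% = no enzyme wells; top concentration of the series not given in the record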
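Compounds were incubated with enzyme (final 15 nM) for 15 min at room temperature before substrate addition started the reaction. Fluorescence at 525 nm excitation, 598 nm emission was recorded immediately and after 30 minutes.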
gsp antagonist: qHTS for Antagonists of gsp, the Etiologic Mutation Responsible for Fibrous Dysplasia/McCune-Albright Syndrome: qHTS | gsp-mutant cells, cAMP HTRF, 30 min; control for the full effect not named in the record | Potency, µM (doses to about 76.9 µM), without a hit: at the top dose activity change, negative = inhibition, hits mostly inhibitors | actives 0.4% (n = 340,000); active = falling curve of any shape with a large fitted effect; inconclusive = falling curve, mostly with a smaller effect; inactive = flat or rising curve; cell line not stated here;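 also: intracellular cAMP measured with PDE inhibitor Ro 20-1724 present during compound exposure; potency is read from the fitted curve at half-maximal effect; % is scaled to controls: 0 for no effect and ±100 for the full control effect; nearly all actives have a fitted effect of over 65% in size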
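G418-selected cells were plated in DMEM/10% FBS for 16-24 h at 37C, then treated with compounds plus the PDE inhibitor […] (300 uM solution added) for 30 min at 37C. Intracellular cAMP was measured by HTRF after 30 min lysis at room temperature.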
The depositor's hits bear a star; ? = inconclusive; · = not tested or not shown; & = joins results of further samples; [ ] = remark or other dose.

SMILES	ClpP mod	Menin MLL FP FL	gsp ag	CtBP-E1A blk	TRPV1 PAM	Sfp PPTase inh	gsp antagonist
CC(C)(C)C1=NN=C2c3ccccc3C(=O)C21 (centres undefined)	0.8%	-3.2	-8%	·	9	21%	4%
CCCn1nnnc1NC(=O)c1cc(Cl)ccc1Cl	0.6%	1.4	-3%[15.4 µM]	3	0	-6%	12%
CCOc1ccc(OCCC(=O)Nc2ccc3c(c2)OCO3)cc1	1.4%	·	-1%	20	-10	·	-5%
COc1ccccc1C(=O)OCc1ccc2sc(C)nc2c1	·	-0.8	22%	-17	-6	7%	-4%
CN(C)S(=O)(=O)c1ccc(N2CCCC2)c(C(=O)Nc2nc3ccccc3s2)c1	-18%	-1.2	-27%	-7	14	-9%	2%
COc1ccc(S(=O)(=O)N2CCCC2CNC(=O)C(=O)NCc2ccc3c(c2)OCO3)cc1 (centres undefined)	·	·	12%[15.4 µM]	-1	21	·	-7%
O=C(NCc1ccc(F)cc1)c1ccc2c(c1)S(=O)(=O)c1ccccc1C2=O	-0.5%	·	22%	-8	·	·	-5%
CCCOc1ccc(C(=O)NCCO)cc1	-1.2%	2.9	-17%	-3	19	16%	7%
COc1ccc(/C=N/NC(=O)Cc2csc(Nc3cccc(C(F)(F)F)c3)n2)c(OC)c1	-2.6%	4.0	17%	-5	21	16%	-8%
CCN1CCN(C(=O)c2cc(COc3ccc(F)c(F)c3)on2)[C@@H](C)C1=O	0.3%	·	-45%[inhibitor]	-5	·	·	·
Cc1cc(/C=N/NC(N)=S)c(C)n1-c1cccc(Cl)c1	·	2.2	?	-14	-1	-3%	11%
O=C1c2cccc3c([N+](=O)[O-])ccc(c23)C(=O)N1CCc1ccccn1	·	2.8	16%	6	0	12%	-12%
CCOc1ncccc1C(=O)NNC(=O)c1csc(N2CCOCC2)n1	1.7%	·	-20%[15.4 µM]	2	-7	·	-8%
CCOC(=O)C1=C(C)N(c2ccc(C)c(C)c2)C(=O)/C1=C\c1ccco1	0.2%	0.6	-1%	-2	6	?	-1%
COc1cccc2c1cc1c(=O)n(CC(=O)NCCCN3CCCCC3)nc(C)n12	4.1%	·	8%	·	0	1%	10%
Cc1nc(N)nc(-c2ccccc2O)n1	0.8%	1.1	8%	6	-6	3%	4%
Clc1ccc(OCCn2ccnc2)cc1Cl	·	-1.2	-35%[inhibitor]	-3	16	-24%	-3%
CCOCCOC(=O)c1ccc(NC(=O)C2COc3ccccc3O2)cc1 (centres undefined)	-0.4%	-2.1	3%	-1	-1	0%	-5%
Cc1cccc(-n2ncc(C(=O)NC3CCCC3)c2C2CCN(C(=O)OC(C)(C)C)CC2)c1	-3.2%	5.9	22%	-7	0	24%	-13%
Cc1ccc(CNC(=O)C2CCC(=O)N(Cc3ccc(Cl)cc3)C2)cc1F (centres undefined)	-0.2%	·	3%	-13	-11	2%	-7%
CC(C)(C)c1ccc(OCCCCCCN2CCNCC2)cc1	·	·	9%[15.4 µM]	-6	·	·	3%
CC(=O)c1ccc(S(=O)(=O)NC2CC(=O)N(c3ccc(C)cc3)C2)cc1 (centres undefined)	-2.6%	·	-10%	10	11	·	5%
O=C(COC(=O)CN1C(=O)c2cccc([N+](=O)[O-])c2C1=O)NC1CCS(=O)(=O)C1 (centres undefined)	0.0%	3.1	1%	6	0	3%	1%
COC(=O)c1nnn(-c2cc(Cl)cc(Cl)c2)c1C(=O)OC	0.1%	2.9	-5%	·	1	4%	-5%
COC(=O)C(NC(C)=O)(Nc1nc2ccc(S(C)(=O)=O)cc2s1)C(F)(F)F (centres undefined)	-2.6%	-1.5	15%	1	0	7%	3%[15.4 µM]
COc1cc(CC(=O)Nc2nccs2)cc(OC)c1OC	0.7%	0.9	5%	0	-6	1%	9%
CCOC(=O)c1c(C)[nH]c(C(=O)CSc2nccc(C)n2)c1C	·	2.1	-2%[15.4 µM]	16	-17	-1%	4%
Cc1ccccc1NC(=O)c1ccc(OCc2c(C)noc2C)cc1	1.1%	·	24%	3	6	·	15%
Cc1ccc(NC(=O)C2CC(=O)N(c3ccc4c(c3)OCCO4)C2)nc1 (centres undefined)	-1.0%	·	1%[15.4 µM]	1	7	·	-2%
CCCc1cc(=O)[nH]c2nnc(SCC(=O)Nc3cccc(NC(C)=O)c3)n12	-7.7%	·	7%	-5	?	·	9%
COc1ccc(CN2C(=O)c3ccccc3C2=O)cc1C(=O)N(C)CC(=O)Nc1c(C)cccc1C	1.2%	·	28%	4	4	·	-10%
CCc1ccc(NC(=O)N2CCCCCC2)cc1	2.0%	1.7	8%	-4	-4	20%	11%
CCN1CCN(CC(=O)n2c3c(c4ccccc42)CC(C)CC3)CC1 (centres undefined)	-6.8%	-0.1	-49%[inhibitor]	-17	-1	-4%	6%
O=C(c1ccc2nc(N3CCCCC3)sc2c1)N1CCN(c2ccccn2)CC1	-14%	0.5	-46%[inhibitor]	-1	12	-2%	-23%
Cc1ccc(/C=N/c2sc3c(c2C#N)CCC3)o1	0.5%	?	2%	-24	-9	?	-9%
CC1(C)O[C@@H]2[C@H](O1)[C@@H](COS(=O)(=O)O)O[C@H]2n1cnc2c(=O)[nH]cnc21	-2.1%	·	·	-1	9	·	4%
CCCCN1C(=O)C2C3C=CC(C2C1=O)C1C2C(=O)N(CCCC)C(=O)C2C31 (centres undefined)	-0.8%	3.5	-36%[inhibitor]	-9	6	-9%	7%
Cn1ccc(NS(=O)(=O)c2cc(Br)ccc2Br)n1	0.0%	·	-10%	8	15	·	4%
Cc1ccccc1C(=O)NC(CC(C)C)C(=O)NN1C(=O)c2ccccc2C1=O (centres undefined)	·	1.2	-15%	0	5	0%	6%
COC(=O)CCCNC(=O)CC1C(=O)NCCN1Cc1ccoc1 (centres undefined)	-3.3%	-9.3	-3%	·	9	4%	7%
COc1ccccc1C(=O)N/C(=C\c1cn(C)c2ccccc12)C(=O)NCCCn1ccnc1	·	·	-2%	-2	5	4%	-8%
CCOC(=O)N1CCN(C(=O)c2cnn(-c3ccccc3)c2NC(=O)c2ccccc2F)CC1	0.8%	-2.0	-9%	11	-7	6%	-8%
CC1CCCCC1NC(=O)CO/N=C/c1ccc(OC(F)F)cc1 (centres undefined)	·	-1.5	11%[15.4 µM]	16	0	4%	·
CC(C)OCP(=O)(c1ccccc1)c1ccccc1	-0.3%	-1.0	-19%	-2	-3	9%	8%
Cc1cc(C)c(NC(=O)CC(C)(C)C)c(Cl)c1	-1.3%	-4.3	5%	5	6	12%	5%
Cc1ccc(S(=O)(=O)N2CCC(C(=O)NC3CCCC3)CC2)cc1Cl	0.2%	9.4	-11%[15.4 µM]	2	-4	24%	8%
CC(C)NC(=O)c1ccc(-n2c(=S)[nH]c3ccccc3c2=O)cc1	·	0.3	·	·	2	17%	·
COc1ccc(C(=O)c2sc3nc(C)cc(-c4cccs4)c3c2N)cc1OC	-0.8%	?	?	14	15	-28%	-15%
COC(=O)Nc1ccccc1C(=O)N1CCCCC1	-5.9%	3.6	-25%	-2	7	-8%	0%
COc1ccc(N2CCN(S(=O)(=O)c3ccc4c(c3)CCCC4)CC2)c([N+](=O)[O-])c1	-13%	0.1	-2%	3	-25	12%	-3%
CCN(CC)S(=O)(=O)c1cc(NC(=O)CN2CCN(c3ccccn3)CC2)ccc1C	-1.7%	0.4	23%	·	-10	14%	-6%
COc1ccc(CN2C(=O)C(C)Nc3ncnc(N4CCN(c5ccccc5)CC4)c32)cc1 (centres undefined)	-6.6%&-3.9%	·	·	-16&-13	·	·	-1%
O=C(NCC1CCCCC1)C1(CC2CC(c3ccc(Cl)cc3)=NO2)CCNCC1 (centres undefined)	2.8%	-0.1	-50%[inhibitor]	0	20	-6%	3%
O=C(O)CC(CC(=O)N1CCN(C(=O)c2ccco2)CC1)c1ccccc1 (centres undefined)	-0.1%	·	15%	-2	5	16%	14%
O=C(NC1CCCCC1)C(c1ccccc1)N1CCCC1 (centres undefined)	1.0%	0.4	-15%	0	-28	-4%	13%
CCc1ccc(N2CC(C(=O)OCC(=O)N(CC)c3c(N)n(Cc4ccccc4)c(=O)[nH]c3=O)CC2=O)cc1 (centres undefined)	0.1%	·	-22%	·	·	·	7%
N#CC1=C(N)Oc2cc(O)ccc2C1c1ccccc1 (centres undefined)	0.6%	16	-32%[inhibitor]	-2	1	4%	-17%
Cc1ccc(N2C(=O)CSC2=S)cc1C	0.5%	6.6	3%	·	5	11%	9%
COc1ccc(N2CCN(C(=O)COc3ccccc3)CC2)cc1	-1.3%	-2.2	-10%	9	-7	11%	5%
O=C(NCCCn1ccnc1)c1nc(Cn2cc([N+](=O)[O-])cn2)no1	0.4%	-4.2	-1%[15.4 µM]	10	4	2%	15%
N#Cc1nc(COc2ccc(-c3ccccc3)cc2)oc1NCc1cccnc1	-2.9%	-2.3	?	-21	16	-9%	-18%
CCN(Cc1cccc(F)c1)C(=O)c1ccc2ccccc2n1	·	-0.5	-3%	0	15	1%	-1%
Cc1ccc(NC(=S)NCCc2ccc(F)cc2)c(C)c1	0.8%	0.3	-30%	-10	-9	14%	6%

Complete entries, looked up by structure.
`COc1ccc(N2CCN(C(=O)COc3ccccc3)CC2)cc1` as listed: ClpP mod = -1.3%; Menin MLL FP FL = -2.2; gsp ag = -10%; CtBP-E1A blk = 9; TRPV1 PAM = -7; Sfp PPTase inh = 11%; gsp antagonist = 5%
`CC(C)NC(=O)c1ccc(-n2c(=S)[nH]c3ccccc3c2=O)cc1` as listed: ClpP mod = ·; Menin MLL FP FL = 0.3; gsp ag = ·; CtBP-E1A blk = ·; TRPV1 PAM = 2; Sfp PPTase inh = 17%; gsp antagonist = ·
